# eIF4H inh – inhibitors of RNA binding by human eIF4H | Q15056 | eIF4H fluorescence polarization binding assay | 290,000 tested, 0.94% active | inhibition, % at 35 µM;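 active means 50% or more with normal probe brightness, or confirmed in later tests; inconclusive means above 50% with abnormal brightness, or retests that disagree; inactive means below 50% or failed in later tests; about a fifth of its hits are not listed in these tables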;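 further: calls also rest on retests at 20 µM and on dose response follow-up; 0% = protein and probe with vehicle and 100% = probe without protein; strong numbers were not always called active; many hits fall short of the cut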
# MT1-MMP act inh – MT1-MMP (human) activation inhibition; GFP/RFP ratio change, % at 20 µM; HT1080 RFP-PRO-GFP cells, GFP/RFP ratio fluorescence, overnight; percent of plate control window, DMSO zero; AID 651647; 360,000 tested, 0.061% active; P50281;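 active means GFP/RFP ratio change of at least 30% with cell ATP level not reduced by more than half and red fluorescence within 50% of control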; further: strong numbers were not always called active
#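 Assay system: HT1080 cells carrying an RFP-PRO-GFP reporter | Dosing: Single dose of 20 µM compound, 1% DMSO final | Incubation: Cells overnight before dosing, compound overnight, 37 °C, 5% CO2 | Evaluation: GFP/RFP fluorescence ratio | Control set: DMSO and RFP-L50D-GFP cell wells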
# PABP FP inh – PABP-poly(A) binding inhibition; 290,000 tested, 1% active; P11940; PABP-poly(A) RNA binding, fluorescence polarization; inhibition, % at 35 µM; AID 2014;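 active means 50% or more with normal probe brightness, or confirmed in later tests; inconclusive means above 50% with abnormal brightness, or retests that disagree; inactive means below 50% or failed in later tests; about a fifth of its hits are not listed in these tables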;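 further: calls also rest on retests at 20 µM and on dose response follow-up; controls were probe without protein and protein plus probe with vehicle; some compounds called inactive have numbers as strong as hits; many hits fall short of the cut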
# Target sequence (P11940 whole entry, looked up): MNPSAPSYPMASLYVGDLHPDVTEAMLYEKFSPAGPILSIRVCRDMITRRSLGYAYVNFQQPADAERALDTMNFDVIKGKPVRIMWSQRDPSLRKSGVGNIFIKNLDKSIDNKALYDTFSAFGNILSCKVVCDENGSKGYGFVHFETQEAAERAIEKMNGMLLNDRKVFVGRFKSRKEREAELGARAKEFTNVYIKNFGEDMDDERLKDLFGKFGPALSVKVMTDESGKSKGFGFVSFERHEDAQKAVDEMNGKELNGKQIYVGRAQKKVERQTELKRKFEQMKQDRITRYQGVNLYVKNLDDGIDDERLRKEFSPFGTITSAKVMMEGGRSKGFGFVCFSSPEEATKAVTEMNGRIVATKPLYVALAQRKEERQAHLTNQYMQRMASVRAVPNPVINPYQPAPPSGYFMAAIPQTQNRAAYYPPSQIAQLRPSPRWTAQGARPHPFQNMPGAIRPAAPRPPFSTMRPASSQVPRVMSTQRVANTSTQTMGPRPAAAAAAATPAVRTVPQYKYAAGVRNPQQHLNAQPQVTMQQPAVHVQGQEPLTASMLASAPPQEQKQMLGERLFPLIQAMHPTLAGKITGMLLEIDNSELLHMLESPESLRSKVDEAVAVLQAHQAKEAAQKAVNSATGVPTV
# Rce1 inh – blocks yeast Ras-converting enzyme. yeast membranes, quenched prenylated peptide cleavage fluorescence. calls only. AID 2563. 290,000 tested, 0.27% active;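 active means fall in fluorescence gain of 50% or more versus controls, with final raw signal at or below 3038400; inconclusive means same 50% fall but final raw signal above 3038400; inactive means fall in fluorescence gain under 50%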;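 further: plate controls were neutral control wells for no effect and wells lacking membranes for full effect; tested at 10 µM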
# Target sequence (Q03530 whole entry, looked up): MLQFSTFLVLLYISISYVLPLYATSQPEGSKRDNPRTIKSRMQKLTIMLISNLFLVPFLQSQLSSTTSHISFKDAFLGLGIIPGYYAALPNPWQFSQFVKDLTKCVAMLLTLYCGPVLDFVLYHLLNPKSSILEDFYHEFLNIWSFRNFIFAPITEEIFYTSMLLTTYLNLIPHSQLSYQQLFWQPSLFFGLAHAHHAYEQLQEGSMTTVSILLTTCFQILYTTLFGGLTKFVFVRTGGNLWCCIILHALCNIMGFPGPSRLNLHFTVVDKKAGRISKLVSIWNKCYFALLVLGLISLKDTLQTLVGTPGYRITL
# HIV Env fusion – inhibitors of HIV Env-mediated cell fusion; 360,000 tested, 1.1% active; HeLa-JRFL Env/CEM21 cell fusion, luciferase; inhibition, % at 12.3 µM; AID 651610;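 active means mean replicate inhibition score of at least 50 and every replicate individually at or above 50; inconclusive means only one of the two criteria met; inactive means mean below 50 and not all replicates reaching 50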;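 further: 0% = plate neutral controls and 100% = maraviroc near 300 nM; one replicate is shown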
# CSC inhib – cancer stem cell inhibition. cancer stem cell-like cells viability, luminescence. inhibition, % at 7.5 µM. 300,000 tested, 1.1% active. AID 2717;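 active means mean at 75% or more and at least half the replicates too; inconclusive means mean and replicates disagree; tested in HMLE shEcad cells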;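 further: 0% = median of negative and 100% = median of positive control wells; the first replicate is given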
# UUG fidelity – alters start codon recognition fidelity in yeast. AID 602363. activity score, % at 18.7 µM. 350,000 tested, 0.13% active. S. cerevisiae UUG-firefly luciferase reporter, luminescence/redox ratio;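 active means replicate mean at a twofold rise or more, about +100% in these data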;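 further: firefly luciferase made from a UUG start codon reports start codon fidelity; reporter light over untreated wells divided by growth signal over untreated wells; some hits fall short of that in this replicate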
# eIF4H inh retest – second read-out of eIF4H inh, no call of its own (marks repeat the call); inhibition, %; compound at 20 µM; confirmation average;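 mean of two retest wells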
# PABP FP inh retest – second read-out of PABP FP inh, no call of its own (marks repeat the call); inhibition, %; compound at 20 µM; confirmation repeats;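 mean of two retest wells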
# MT1-MMP act inh RFP – recorded beside MT1-MMP act inh, whose call it bears; RFP signal change, %; measured here: RFP expression control read;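 0 = vehicle wells; hits needed this value within 50% of zero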
# Active calls of the source: *; i = inactive; ? = inconclusive; nt = no result given; [ ] = remark or other dose. These rows are one share of the data; count on the stated rates, not on these rows.
SMILES,eIF4H inh,MT1-MMP act inh,MT1-MMP act inh RFP,PABP FP inh,Rce1 inh,HIV Env fusion,CSC inhib,UUG fidelity,others
CN1CCN(c2ccccc2NC(=O)c2cccc(OCc3ccccc3)c2)CC1,-7,-13,-9,8,i,nt,-8,-7,
C/C(=C\c1ccccc1)C(=O)N1CCN(c2cccc(C(F)(F)F)c2)CC1,4,-2,-3,12,i,3,-8,-7,
CC(=O)c1ccc(C(C)(C)c2ccc(C(C)=O)s2)s1,-1,4,-3,3,i,22,4,-19,
Cc1cc(NS(=O)(=O)c2ccc(NC(=O)Nc3ccc4c(c3)OCO4)cc2)no1,7,1,1,3,i,-67,-6,nt,
CCC(C)C(NS(=O)(=O)c1ccc(C)cc1)C(=O)Oc1ccc2c3c(c(=O)oc2c1)CCC3 (stereo unspecified),9,-6,-2,3,i,-14,-3,-10,
NC(=O)CC1C(=O)N(c2ccccc2)C(=S)N1NC(=O)c1ccccc1 (stereo unspecified),6,-1,2,6,i,-33,0,-1,
CCCCCCCCCCCCCCCC(=O)OC/C=C(C)/C=C/C=C(C)/C=C/C1=C(C)CCCC1(C)C,nt,-1,0,nt,nt,nt,-8,-12,
CN(C)CC(=O)N[C@@H]1CC[C@@H](CCNS(=O)(=O)c2ccccc2)O[C@@H]1CO,nt,-1,2,nt,nt,-9[16.7 µM],nt,-5,
Cc1cc(C)c2[nH]c(O)c(N=NC(=O)c3cc4c(s3)CCCC4)c2c1,-1,nt,nt,9,i,nt,-2,nt,
O=C(COC(=O)c1ccc(S(=O)(=O)N2CCCCCC2)cc1)Nc1ccccc1C(F)(F)F,nt,-2,-2,nt,nt,0,nt,-19,
O=[N+]([O-])c1c(NCCO)cc(N2CCCCC2)c2nonc12,2,6,2,5,nt,3,10,nt,
Cc1cccc(N(C)C(=S)Oc2ccc3ccccc3c2)c1,11,-3,-6,-2,i,-60,18,-1,
CC(=O)NC1C(=O)N=C(SCC(=O)Nc2cccc(Cl)c2)NC1=O (stereo unspecified),0,-8,3,6,i,-17,-9,-9,
CCC(C)NC(=O)c1ccc(Cl)c(S(=O)(=O)Nc2ccccc2N2CCOCC2)c1 (stereo unspecified),nt,0,3,nt,nt,-13,5,15,
CCc1c(C)c(C#N)c2[nH]c3ccccc3n2c1=S,58,0,-27,36,i,42,12,nt,eIF4H inh retest=-1;PABP FP inh retest=27
CN1C(=O)C(O)(CC(=O)c2ccccn2)c2cc(Br)ccc21 (stereo unspecified),2,-4,11,-3,i,nt,22,-6,
O=Cc1c(-c2ccccc2)nc2ccccn12,-1,3,1,15,i,-6,11,nt,
CC1(C)Cc2c(sc3[nH]c(=S)n(Cc4ccco4)c(=O)c23)CO1,31,1,0,21,i,-65,-3,-4,
CCOCC(=O)Nc1c(C)n(C)n(-c2ccccc2)c1=O,0,nt,nt,-6,i,nt,-6,nt,
O=c1nccc(N/N=C/c2ccccc2)[nH]1,-4,-3,-1,8,i,32,2,-14,
CCCN(CCC)C(=O)C(c1ccccc1)C1(O)CCCCC1 (stereo unspecified),nt,0,-4,nt,nt,43,nt,-10,
CN(C(=O)COC(=O)c1ccc(CN2CCCC2=O)cc1)c1ccccc1,nt,0,-1,nt,nt,nt,-9,-6,
CCCCC(=O)NC(NC(=S)N1CCCCCC1)C(Cl)(Cl)Cl (stereo unspecified),-5,2,0,1,i,12,-8,-10,
COc1ccccc1C(=O)Nc1c(C)cc(Br)cc1C,2,-1,-2,4,i,9,12,nt,
COc1cccc(-c2cc3nc(Nc4ccc(OC)c(OC)c4)n(C)c(=O)c3s2)c1,nt,-7,-6,nt,nt,-64,nt,5,
Cc1ccc2c(Cl)cc(Cl)c(OCC(=O)NCCc3ccccn3)c2n1,-4,1,4,-12,i,24,11,nt,
CCCNC(=O)NC(=O)CSc1nnc(C)n1N,-7,2,2,-1,nt,nt,4,11,
COc1ccc(/C=N/Nc2nccnc2Cl)c(OC)c1,4,0,-1,-3,i,1,-1,nt,
C=C(C)CSc1nnc2[nH]c(=O)cc(N)n12,nt,-9,-7,nt,i,nt,-11,-19,
COc1cccc(C(=O)NCc2ccc3[nH]c(C)cc3c2)c1,6,21,34,5,i,18,-12,nt,
CN(C)S(=O)(=O)c1cccc(CSCc2cccc(S(=O)(=O)N(C)C)c2)c1,3,2,-32,7,i,?,9,-11,
Cc1nc(NC(=O)c2ccccc2)sc1-c1csc(Nc2cccc(F)c2)n1,-9,nt,nt,1,i,nt,2,nt,
CCN1CCN(Cc2c(C(=O)N/N=C(\C)c3ccc(Cl)cc3)nnn2-c2nonc2N)CC1,-1,0,0,10,i,12,-6,-10,
C=CCn1c(SCC(=O)NCC2CCCO2)nc2sc(CC)cc2c1=O (stereo unspecified),nt,-2,-5,nt,nt,14,-5,-13,
COC(=O)c1ccc(CNC(=O)COC(=O)CCC(=O)c2ccc(F)cc2)cc1,nt,4,5,nt,nt,nt,-20,-8,
CC(=O)OCc1c(C(F)(F)F)nn(C)c1SCc1ccc(Cl)cc1,-1,-1,0,10,i,nt,-11,nt,
O=C(COC(=O)c1ccccc1NC(=O)c1ccco1)NCCC1=CCCCC1,-2,-2,2,5,i,nt,-1,-16,
Cc1ccc(/C=C2/NC(=O)N(Cc3ccccc3)C2=O)s1,?,-68,-2,?,i,-103,-9,2,
COc1ccccc1OCC(=O)/C=C1/N(C)c2ccccc2C1(C)C,26,0,-5,-9,i,0,9,nt,
Oc1ccc(/C=N/Nc2ccc(Cl)nn2)c(O)c1O,80*,-11,-1,55*,i,11,2,-47,
c1ccc2c(C[C@@H]3CNCCN3CCCCC3CCCCC3)cccc2c1,nt,3,3,nt,nt,-1,34,-6,
Cc1ccc(CCNC(=O)CCS(=O)(=O)c2ccc(Br)cc2)cc1,3,0,-2,36,i,-10,-9,nt,
Cc1ccc(NC(=O)CSc2nnc(CSc3nc(C)cc(C)n3)n2Cc2ccco2)c(C)c1,10,-3,-7,18,i,21,-15,-9,
CC(C)C[C@H](NC(=O)N1CC(=O)Nc2ccccc21)C(=O)N[C@H](C(=O)O)c1ccccc1,15,2,-1,36,nt,nt,-10,-14,
CCS(=O)(=O)n1nc(-c2ccccc2)nc1N,-1,3,4,-2,i,1,nt,-12,
COc1cc2cc(/C=C/C(=O)c3ccco3)c(Cl)nc2cc1OC,77*,-36,1,90*,i,-299,-6,-8,
O=C(C1CCCN(S(=O)(=O)c2ccc([N+](=O)[O-])cc2)C1)N1CCCCC1 (stereo unspecified),-8,3,-11,-5,i,nt,?,-11,
COc1ccc(NC(=O)c2cc(Cl)ccc2NC(=O)c2ccco2)c(OC)c1,-2,-2,-7,1,i,-37,nt,-11,
CC1CCCCC1NC(=O)C(Cc1ccccc1)NS(=O)(=O)c1cccs1 (stereo unspecified),-3,-4,-2,-3,i,43,2,-8,
COC(=O)[C@]1(Cc2ccccc2)N[C@H](c2ccc(-c3cccc(Cl)c3)cc2)[C@@H]2C(=O)N(C)C(=O)[C@@H]21,nt,4,-2,nt,i,-27,-1,-14,

# Following part
SMILES,eIF4H inh,MT1-MMP act inh,MT1-MMP act inh RFP,PABP FP inh,Rce1 inh,HIV Env fusion,CSC inhib,UUG fidelity,others
CCCCCCN1C[C@@H](n2cc(-c3ccc(F)cc3)nn2)[C@H](O)C[C@@H]1c1ccc(Cl)cc1,nt,-17,-29,nt,nt,?,nt,6,
Cc1cc(-c2ccc(C)c(S(=O)(=O)NCc3ccc(OC(C)C)cc3)c2)on1,-4,4,0,-8,i,1,22,3,
COC(=O)c1sccc1NC(=O)C1C2C=CC(C2)C1C(=O)O (stereo unspecified),2,-3,4,-16,i,-21,6,1,
Cc1cccc(CN2C(=O)/C(=C\c3ccc(C(=O)NCCN4CCOCC4)cc3)Sc3ccccc32)c1,-17,-2,-4,-10,i,nt,-16,-2,

# Among those listed so far, these have a COOH group.
SMILES,eIF4H inh,MT1-MMP act inh,MT1-MMP act inh RFP,PABP FP inh,Rce1 inh,HIV Env fusion,CSC inhib,UUG fidelity,others
CC(C)C[C@H](NC(=O)N1CC(=O)Nc2ccccc21)C(=O)N[C@H](C(=O)O)c1ccccc1,15,2,-1,36,nt,nt,-10,-14,
COC(=O)c1sccc1NC(=O)C1C2C=CC(C2)C1C(=O)O (stereo unspecified),2,-3,4,-16,i,-21,6,1,

# In the list so far, eight have a thiophene ring, fused or not.
SMILES,eIF4H inh,MT1-MMP act inh,MT1-MMP act inh RFP,PABP FP inh,Rce1 inh,HIV Env fusion,CSC inhib,UUG fidelity,others
CC(=O)c1ccc(C(C)(C)c2ccc(C(C)=O)s2)s1,-1,4,-3,3,i,22,4,-19,
Cc1cc(C)c2[nH]c(O)c(N=NC(=O)c3cc4c(s3)CCCC4)c2c1,-1,nt,nt,9,i,nt,-2,nt,
CC1(C)Cc2c(sc3[nH]c(=S)n(Cc4ccco4)c(=O)c23)CO1,31,1,0,21,i,-65,-3,-4,
COc1cccc(-c2cc3nc(Nc4ccc(OC)c(OC)c4)n(C)c(=O)c3s2)c1,nt,-7,-6,nt,nt,-64,nt,5,
C=CCn1c(SCC(=O)NCC2CCCO2)nc2sc(CC)cc2c1=O (stereo unspecified),nt,-2,-5,nt,nt,14,-5,-13,
Cc1ccc(/C=C2/NC(=O)N(Cc3ccccc3)C2=O)s1,?,-68,-2,?,i,-103,-9,2,
CC1CCCCC1NC(=O)C(Cc1ccccc1)NS(=O)(=O)c1cccs1 (stereo unspecified),-3,-4,-2,-3,i,43,2,-8,
COC(=O)c1sccc1NC(=O)C1C2C=CC(C2)C1C(=O)O (stereo unspecified),2,-3,4,-16,i,-21,6,1,
